# Compound activity: PubChem BioAssay, National Center for Advancing Translational Sciences (NCATS)
# D2 ag: Beta-Arrestin HTS for Positive Allosteric Modulators of the Human D2 Dopamine Receptor: Agonists | D(2) dopamine receptor (Homo sapiens), P14416 | DiscoveRx PathHunter D2 beta-arrestin, luminescence, 90 min; 100% = 57 uM dopamine signal | activation, % (no concentration beside the values) | hit rate 0.084% among 360,000; in the data active = activation above about 40%; inconclusive = about 15% to 40%; inactive = below about 15%; note: compound concentration not given in the record; the text of the record calls up to 30% inactive
# Target sequence (P14416 whole entry, looked up): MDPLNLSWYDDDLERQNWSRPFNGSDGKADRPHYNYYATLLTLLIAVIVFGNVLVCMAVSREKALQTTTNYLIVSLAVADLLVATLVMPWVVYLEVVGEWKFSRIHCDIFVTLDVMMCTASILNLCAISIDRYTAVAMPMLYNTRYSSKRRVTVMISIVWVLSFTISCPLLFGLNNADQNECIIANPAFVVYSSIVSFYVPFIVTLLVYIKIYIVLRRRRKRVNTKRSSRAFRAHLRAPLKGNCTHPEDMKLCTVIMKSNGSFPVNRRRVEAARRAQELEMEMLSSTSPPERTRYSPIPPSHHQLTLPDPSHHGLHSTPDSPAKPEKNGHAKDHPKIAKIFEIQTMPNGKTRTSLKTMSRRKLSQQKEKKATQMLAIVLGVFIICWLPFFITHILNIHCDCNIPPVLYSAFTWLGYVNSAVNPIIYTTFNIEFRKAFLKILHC
#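 Agonist mode: compounds alone added to overnight-plated D2 PathHunter cells for 90 min at 37 C, with 57 uM final dopamine (EC100) defining full response. Beta-arrestin recruitment detected by chemiluminescent reagent, read after 1 h at ambient temperature.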
# PINK1 modulator: A Quantitative High throughput Screen to Identify Chemical Modulators of PINK1 Expression | PINK1 immunofluorescence, high-content cytometry, 24 h | Potency, µM (titrated, usually from 76.6 µM), for the others: at the highest dose activation (PINK1 increase), actives largely listed as activators | hit rate 0.2% among 410,000; active = well fitted activation curve with a large enough effect; inconclusive = small, poorly fitted or top-dose-only effect; inactive = flat fitted curve, though single readings scatter; cell line not stated here;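 note: potency is the fitted concentration of half-maximal effect; % of control where 0% means no effect; nearly all actives have a fitted effect of over 65% in size; a mitochondrial uncoupler was the plate control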
#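 PINK1 protein level read as immunofluorescence by microplate cytometer in a fixed, stained stable cell line after 24 h exposure to five compound concentrations, with CCCP as control.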
# Six1-Eya2 inh: qHTS Assay for Inhibitors of the Six1/Eya2 Interaction; Homeobox protein SIX1 (Homo sapiens) + Protein phosphatase EYA2 (Homo sapiens), …; AlphaScreen GST-Six1/His-Eya2 binding, biochemical; stronger effect = lower value; control for the full effect not named in the record; activity change, % (test concentration not listed); hit rate 0.56% among 360,000; in the data active = activity change below about -65%; inconclusive = about -30% to -65%; inactive = above about -30%; note: % is set by controls: 0 for no effect and ±100 for the full control effect; compound concentration not given in the record
#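 AlphaScreen with GST-Six1 and His-Eya2 (5X mix: 250 nM and 500 nM), glutathione donor and nickel acceptor beads; buffer 50 mM Tris pH 8.0, 300 mM NaCl, 1 mM TCEP; 1 h at 37 C in the dark.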
# D2 PAM: Beta-Arrestin HTS for Positive Allosteric Modulators of the Human D2 Dopamine Receptor: Potentiators; potentiation, % (test concentration not listed); hit rate 0.23% among 360,000; DiscoveRx D2 beta-arrestin cells, luminescence, 90 min; 100% = 57 uM dopamine signal; D(2) dopamine receptor (Homo sapiens), P14416; active = potentiation of 50% or more; inconclusive = 30% to 50%; inactive = 30% or less;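 note: compound concentration not given in the record; tested on top of an EC20 dose of dopamine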
#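 D2 cells co-treated with compound plus 50 nM dopamine (EC20) for 90 min at 37 deg C to detect potentiation. Beta-arrestin recruitment was read as enzyme-fragment luminescence after 1 h at ambient temperature. Full response was set by 57 uM dopamine.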
# CtBP-E1A blk: qHTS Assay for Inhibitors of the CtBP/E1A Interaction; AlphaScreen GST-E1A/His-CtBP binding, 1536-well; stronger effect = lower value; control for the full effect not named in the record; activity change, % (concentration not given with the values); hit rate 0.49% among 340,000; AID 651724, 2012; in the data active means activity change below about -65%; inconclusive means about -30% to -65%; inactive means above about -30%; note: % is set by controls: 0 for no effect and ±100 for the full control effect
#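 Steps: dispense buffer (Tris pH 8.0, NaCl 300 mM, TCEP 1 mM, BSA, Tween 20); add 5X protein mix (GST-E1A, His-CtBP, 125 nM each); pin 23 nL compound; 2 h at 37 °C, dark; add 5X beads (50 ug/mL); 1 h; read.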
# Sfp PPTase inh: qHTS Assay for Inhibitors of Bacillus subtilis Sfp phosphopantetheinyl transferase (PPTase); Biochemical Sfp PPTase activity, qHTS; 4'-phosphopantetheinyl transferase ffp (Bacillus subtilis), Q9F4F7; Potency, µM, for the others: max response, negative = inhibition, usual class: inhibitors; hit rate 3.5% among 310,000; active = well fitted inhibition curve with a large enough effect; inconclusive = small, poorly fitted or top-dose-only effect, or another doubt; inactive = no such curve, though single readings can be large or run the other way;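 note: the enzyme is Sfp with the accession as filed and its product quenches rhodamine fluorescence; potency is the fitted concentration of half-maximal effect; 0% = enzyme reaction without inhibitor and -100% = no enzyme wells; top concentration of the series not given in the record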
#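 Compounds were incubated with enzyme (final 15 nM) for 15 min at room temperature before substrate addition started the reaction. Fluorescence at 525 nm excitation, 598 nm emission was recorded immediately and after 30 minutes.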
# TRPV1 PAM: HTS Assay for Compounds that Act as Potentiators of the Vanilloid Receptor 1. potentiation, % at 8.33 µM. Transient receptor potential cation channel subfamily V member 1 (Homo sapiens), Q8NER1. hit rate 0.02% among 320,000. AID 540277, 2011. TRPV1-expressing cells, Fluo-8 calcium influx, capsaicin EC20 potentiation; host cell line not named in the record; control for the full effect not named in the record; active means potentiation above 80%; inconclusive means 30% to 80%; inactive means below 30%; note: 0% is about no effect
#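 TRPV1-expressing cells were cultured overnight at 35.5C and loaded with Fluo-8 calcium dye for 40 to 90 min at room temperature. After a 10 s baseline, compound was added and calcium influx was read kinetically for 3 min (ex 480/em 520 nm).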
# * = called active by the depositor; ? = inconclusive; · = no result given; & = joins results of further samples; [ ] = dose if it differs, or a comment.
SMILES,D2 ag,PINK1 modulator,Six1-Eya2 inh,D2 PAM,CtBP-E1A blk,Sfp PPTase inh,TRPV1 PAM
CCOC(=O)Cc1csc(NC(=O)/C=C/c2ccc(OC)cc2)n1,3.2,3.7%,-1,-6,-1,12%,2
Cn1c(-c2ccsc2)c(-c2cccs2)c2cc(-c3ccc4cc[nH]c4c3)ccc21,1.6,1.2%,-3,8,2,·,-3
Oc1ccccc1-c1nc(/C=C/c2ccccc2)nn1-c1ccccc1,0.1,5.2%&5.7%,14,-11,6,-10%,-1
CCOC(=O)N1CCN(C(=O)c2ccc3nc(N4CCCCC4)sc3c2)CC1,1.5,1.1%,11,4,-9,10%,15
O=C(O)c1nn(CC(=O)N(C2CCCCC2)C2CCCCC2)c(=O)c2ccccc12,2.3,0.5%,-4,-6,0,23%,-15
O=C(Nc1ccc(C(=O)N2CCN(c3ccc(Cl)cc3)CC2)cc1)C1=CSCCO1,-7.4,0.0%,20,-13,21,2%,12
COc1ccccc1C(=O)NCCC(=O)N1CCN(C(C)=O)CC1,2.9,-1.8%,7,8,-22,·,-4
Cc1ccc(-c2nc3ccccc3c(=O)n2NC(=S)N(C)C)cc1,-8.8,1.5%,-2,-11,21,22µM*,-1
COc1ccc(CNC(=O)COC(=O)CN2C(=O)COc3ccccc32)cc1,-2.3,0.4%,11,-2,12,·,?
Nc1ccc2c(c1)C(O)c1ccc(Cl)cc1-2 (stereo unspecified),-2.1,-0.8%,-5,-21,-4,·,·
CCN1C(=O)[C@H]2[C@@H](c3ccc(-c4ccc(Cl)c(Cl)c4)c(OC)c3)N[C@@](C)(C(=O)OC)[C@H]2C1=O,-2.4,0.8%,-2,-6,-3,·,-14
CCOc1cc2c3c(c1)C1(C(=O)N3C(C)(C)CC2C)C(C#N)=C(N)N2C(=C1C#N)Nc1ccccc12 (stereo unspecified),3.2,-0.9%,14,17,22,11%,-5
S=C(NCCc1ccc(Cl)cc1)NC1CCCC1,-2.6,-0.5%,-1,-4,1,8%,8
CCOC(=O)C1CCN(C(=O)CSc2ccc(Cl)cc2)CC1,0.7,-0.9%,10,1,-3,16%,-10
CC(=O)N1CCc2cc3nc(C)cc(C)c3cc21,-4.2,0.2%,-18,-2,8,17%,2
O=C(Nc1ccc(S(=O)(=O)Nc2nccs2)cc1)c1cccc(S(=O)(=O)N2CCOCC2)c1,-0.7,-1.7%,-1,-2,-5,10%,-1
CC12CN(C(=O)c3ccc(Cl)cc3)C3(C#N)CC1CCC23C (stereo unspecified),0.7,5.9%[38.3 µM],1,8,16,15%,-1
Cc1onc(-c2c(F)cccc2Cl)c1-c1nnc(-c2cccc3ccccc23)o1,-0.8,11%,13,-11,7,0%,-4
CCOC(=O)Cn1c(CN2CCOCC2)nc2c1c(=O)n(C)c(=O)n2C,-4.2,3.1%,0,1,3,16%,3
CC(OC(=O)C1CCN(S(=O)(=O)c2ccc(C(C)(C)C)cc2)CC1)C(=O)N1CCOCC1 (stereo unspecified),0.8,0.2%,-1,-16,14,·,1
CC1=NN(C(=S)Nc2ccccc2)C(C)(C)C1,-0.8,-0.4%,5,-6,0,?,-20
O=C(NC1CCC(O)CC1)c1cc(Cl)c2c(c1)OCCO2 (stereo unspecified),-1.6,1.0%,20,3,15,·,·
Cc1ncccc1C(=O)N1CCCC(CCC(=O)N2CCN(c3ccccn3)CC2)C1 (stereo unspecified),-0.1,-1.2%,0,-13,0,13%,8
O=C(CN1C(=O)CSc2ccc(S(=O)(=O)N3CCOCC3)cc21)N1CCCCC1,1.7,-1.3%,3,-7,4,4%,8
CCOC(=O)C1CCCCN1Cc1ccc(F)cc1 (stereo unspecified),0.8,2.2%[38.3 µM],5,-6,1,-28%,10
O=C1CC(c2ccc(S(=O)(=O)NCc3ccccc3)cc2)CN1 (stereo unspecified),-2.2,-3.3%,8,-1,-7,8%,·
CCCCn1nnnc1NCc1cccs1,0.2,-4.6%[38.3 µM],0,-6,-1,8%,-11
Cc1ccc(NC(=O)C2CC(=O)N(Cc3ccccc3)C2)nc1 (stereo unspecified),1.2,-0.5%,-2,-4,20,·,-5
Cc1ccc(/C=N/Nc2nc(C(C)(C)C)cs2)o1,14,?,-11,-2,·,50µM*,-1
CC(C(=O)NCc1ccc(Cl)cc1)n1cccc1C(=O)c1ccccc1 (stereo unspecified),4.6,0.3%,-2,-8,0,0%,-15
O=C(COC(=O)CNS(=O)(=O)c1ccccc1)Nc1ccc(Cl)cn1,-2.0,-0.6%,6,0,5,5%,2
Cc1cc(C)cc(NC(=S)N2CCN(c3ncc(C(F)(F)F)cc3Cl)CC2)c1,-6.7,8.7%,-7,-7,7,-3%,4
CN(C)CCNc1ncnc2ccccc12,0.1,-4.0%,-3,-4,-2,-4%,-14
O=S1(=O)N[C@@H](Cc2ccccc2)COc2cc(N3CC[C@H](O)C3)ccc21,·,0.3%,9,·,4,·,·
CCCn1c(=N)c(S(=O)(=O)c2ccccc2)cc2c(=O)n3cccc(C)c3nc21,-0.1,6.7%,10,-1,-1,7%,-25
O=C(CCSCCc1ccccn1)Nc1cccc([N+](=O)[O-])c1,-2.9,12%,0,-8,0,2%,1
O=C(Nc1cccc(C(=O)NC2CC2)c1)c1ccc(F)c(S(=O)(=O)N2CCOCC2)c1,0.8,-0.5%,-3,-3,-2,·,4
CCn1ccnc1CNC(=O)c1ccc2oc(CCCc3ccccc3)nc2c1,-2.5,0.6%,-13,-23,0,2%,0
Cc1c(C(=O)N2CCC(Cc3ccccc3)CC2)sc2ncnc(N3CCC(C)CC3)c12,-1.8,14%,0,-4,3,2%,2
CCN(CC)CCN1C(=O)C(=O)/C(=C(/O)c2ccccc2)C1c1ccccc1F (stereo unspecified),-2.1,-0.8%,12,-4,3,4%,2
Cc1ccc(S(=O)(=O)N2CCOCC2)cc1NC(=O)COC(=O)c1cc(=O)c2ccccc2o1,-0.3,-0.6%,6,-6,7,3%,2
CCc1ccc(NC(=S)NCc2cccnc2)cc1,4.8,-2.1%,3,-1,3,12%,·
CC(C)(CO)NCc1ccccc1OCC(=O)Nc1ccccc1,-1.9,·,2,-26,-1,14%,0
CC(C)c1ccc(NC(=O)C2CCCCC2C(=O)O)cc1 (stereo unspecified),-4.3,8.4%,3,-24,6,19%,5
CCOC(=O)C1=CN(Cc2ccco2)S(=O)(=O)N(C)C1c1ccccc1 (stereo unspecified),1.5,4.9%,-4,·,1,·,·
C=CCNc1nc(C(=O)OCC(=O)c2ccc(F)cc2)cs1,-1.5,0.8%,-5,24,-13,·,18
CCN(CC)CCN1C(=O)c2ccccc2NC1c1cc(OC)c(OC)c(OC)c1 (stereo unspecified),-3.3,·,2,-13,11,0%,6
Nc1nnc(SCC(=O)NNC(=O)c2ccc(F)cc2)s1,-2.6,0.0%,3,-14,·,·,-1
O=C(OCC(=O)N1CCN(C(=O)c2ccco2)CC1)c1ccccc1NCCO,-1.3,0.5%,2,-19,0,·,-5
CCOC(=O)C1CCCN(S(=O)(=O)c2cc3c(cc2Cl)NC(=O)CO3)C1 (stereo unspecified),-2.9,0.5%,-1,0,1,9%,7
O=C(NCCS(=O)(=O)N1CCN(c2ccccc2)CC1)c1cccc(F)c1,1.7,2.8%,-1,1,-10,·,-19
CCOC(=O)c1c(NC(=O)CSc2ncn[nH]2)sc(C(=O)N(C)C)c1C,-4.3,-1.9%,-3,-31,-2,·,24
CC(C)N(C(=O)CSc1nnc(NC(=O)Cc2cccs2)s1)C(C)C,-4.2,0.9%,2,-3,·,-27%,-8
CC(=O)Nc1nc(C)nc(C)c1C(C)=O,-1.5,-1.0%,4,9,6,18%,18
Cc1cc(C)nc(NC(=O)Cc2ccc(Br)cc2)n1,-7.2,-1.2%,-2,-5,1,-4%,-3
O=c1[nH]c(CN2CCOCC2)nc2ccccc12,-3.0,-0.7%,-1,-2,4,-15%,-3
COc1cc(NC(=O)c2cccnc2Sc2ccc(Cl)cc2)cc(OC)c1OC,0.0,0.5%,5,-11,2,16%,?
COc1ccc(Cl)cc1S(=O)(=O)NC(C)c1cnn(-c2ccccn2)c1C (stereo unspecified),-3.7,0.9%,38,-13,-17,·,·
CC(=O)c1sc(NC(=O)c2oc3ccc(F)cc3c2C)nc1C,2.8,0.3%,4,-5,-5,·,-1
COc1ccc(C(=O)COc2ccc(F)cc2)c(O)c1C,-1.7,2.1%,5,-1,6,11%,-10

# Copied from the list.
# Entry for `CC(C)N(C(=O)CSc1nnc(NC(=O)Cc2cccs2)s1)C(C)C` under D2 PAM: -3
# Entry for `CC(=O)Nc1nc(C)nc(C)c1C(C)=O` under Six1-Eya2 inh: 4

# (cont.)
SMILES,D2 ag,PINK1 modulator,Six1-Eya2 inh,D2 PAM,CtBP-E1A blk,Sfp PPTase inh,TRPV1 PAM
Cc1nn(-c2ccccc2)c(N)c1N=Nc1cccnc1,-6.1,0.8%,6,-9,·,11%,-6
CNC(=O)c1ccc(Nc2nnc(-c3ccc(C)c(S(N)(=O)=O)c3)c3ccccc23)cc1,3.9,-2.6%,-15,5,-18,17%,-9
C[C@@H]1CCCCO[C@H](CN(C)C(=O)Nc2ccccc2)[C@@H](C)CN([C@H](C)CO)C(=O)c2cc(NS(=O)(=O)c3cn(C)cn3)ccc2O1,-0.5,2.4%,-4,·,2,·,·
O=C(COC(=O)CCc1nc2ccccc2c(=O)[nH]1)Nc1ccc2c(c1)OCO2,-3.2,0.1%,7,-9,·,11%,·
Nc1ncc2c(n1)-c1ccccc1CC2,-3.9,-1.3%,1,-6,4,9%,7
Cc1ccc(N(CC(=O)NCC2CCCO2)S(=O)(=O)c2ccccc2)c(C)c1 (stereo unspecified),5.6,0.0%,-1,-21,15,12%,-21
